Source: PubChem BioAssay
Arbovirus inh – antivirals against arbovirus infection, primary screen, cell-based, full library, 10K replicate subset; actives 0.37% (n = 200,000); inhibition, % at 10 µM; AID 1251, 2008; arbovirus infection cell-based antiviral screen;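 active = inhibition from about 30%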;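 note: bluetongue infection of BSR cells; cell survival read as ATP light after 72 h; 0% = infected wells without compound and 100% = uninfected wells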
RecA intein inh – Mtb RecA intein splicing inhibitors, primary screen, biochemical, fluorescence, HTS; actives 0.75% (n = 290,000); AID 2221, 2009; cell-free RecA intein splicing; Protein RecA (Mycobacterium tuberculosis (strain ATCC 25618 / H37Rv)), P9WHJ3; inhibition, %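 (about 9 µM by stock and volumes)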; in the data active = inhibition above about 30%; inconclusive = no clear call, values can overlap the other calls;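 note: 0% = vehicle wells and 100% = reference inhibitor control wells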
Target sequence (P9WHJ3 whole entry, looked up): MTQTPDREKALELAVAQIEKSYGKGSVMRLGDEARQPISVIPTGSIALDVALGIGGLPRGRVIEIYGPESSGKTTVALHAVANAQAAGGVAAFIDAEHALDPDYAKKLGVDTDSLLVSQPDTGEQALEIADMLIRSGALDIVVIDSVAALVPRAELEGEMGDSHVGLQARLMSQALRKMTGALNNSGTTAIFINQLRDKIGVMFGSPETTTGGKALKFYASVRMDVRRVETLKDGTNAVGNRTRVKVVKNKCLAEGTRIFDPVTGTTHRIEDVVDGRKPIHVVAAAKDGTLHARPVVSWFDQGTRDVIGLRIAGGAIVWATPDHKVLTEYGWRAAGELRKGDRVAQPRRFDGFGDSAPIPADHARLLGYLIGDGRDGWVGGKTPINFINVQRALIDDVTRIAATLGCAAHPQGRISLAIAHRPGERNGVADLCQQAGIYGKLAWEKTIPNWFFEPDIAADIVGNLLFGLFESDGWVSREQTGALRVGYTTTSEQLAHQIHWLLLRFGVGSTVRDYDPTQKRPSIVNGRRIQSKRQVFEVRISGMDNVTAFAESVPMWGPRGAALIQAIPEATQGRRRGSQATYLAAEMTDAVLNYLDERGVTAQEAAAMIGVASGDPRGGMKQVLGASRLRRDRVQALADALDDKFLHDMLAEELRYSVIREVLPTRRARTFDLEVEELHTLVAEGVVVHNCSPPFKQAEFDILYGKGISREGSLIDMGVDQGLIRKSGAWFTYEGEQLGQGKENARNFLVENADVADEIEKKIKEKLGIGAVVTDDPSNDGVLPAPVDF
Mtb bLac sens – beta-lactam sensitization of Mtb H37Rv, H37Rv; inhibition, % at 25 µM; actives 0.27% (n = 330,000); M. tuberculosis H37Rv growth with meropenem, percent inhibition; hits of this screen are not shown here; AID 434955, 2010;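 active = about 74% or more and at least 40 points above the plate without the antibiotic, then above 30% in a dose series; inconclusive = first-round hits that could not be retested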;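 note: growth measured after seven days incubation then overnight dye step; 0% = bacteria only wells and 100% = bacteria with antibiotic; twin plates without the antibiotic show which effects depend on it; some results filed as inactive read as strong as hits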
Mtb H37Rv – M. tuberculosis H37Rv growth inhibitors, H37Rv strain (AID 1626) | inhibition, % at 10 µM, or IC50 in µM where a hit was titrated | M. tuberculosis H37Rv growth inhibition; higher % means a stronger effect | actives 0.95% (n = 220,000);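 active = confirmed in a dose series; inconclusive = inhibition above 80% but not taken into the dose series; inactive = below 80% or under 30% at every dose of the series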;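 note: bacteria incubated seven days before Alamar blue readout; 0% = bacteria only wells and 100% = bacteria with antibiotic wells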
YopH inh – YopH tyrosine phosphatase inhibitors, primary screen, biochemical, fluorescence Ex485/Em525; actives 0.16% (n = 140,000); inhibition, %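 (about 10 µM by stock and volumes)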; YopH tyrosine phosphatase [Yersinia enterocolitica];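 active = inhibition of 50% or more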;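 note: controls were vehicle for no effect and minimum signal wells for full effect; inactives centre near -20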
Arbovirus inh repeat – second read-out of Arbovirus inh, no call of its own (marks repeat the call); inhibition, %; measured here: 10K subset replicate screen; many hits read low in the repeat;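 first of two repeat runs on a subset; 0% = infected and 100% = uninfected wells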
Active calls of the source: *; ? = inconclusive; / = not tested or not shown. An excerpt, so the mix of outcomes need not match the whole.

SMILES	Arbovirus inh	RecA intein inh	Mtb bLac sens	Mtb H37Rv	YopH inh	others
COc1ccc(-c2noc(CCCC(=O)NCCc3ccccc3)n2)cc1OC	2	1.8	8	-4%	-16
C=C(C)Cn1c(CCNC(=O)CC)nc2ccccc21	-3	-1.8	-3	-2%	-113
O=c1[nH]c2cccc(F)c2n2cccc12	/	-1.7	4	/	/
CC(=O)Nc1ccc(N=Nc2ccccc2)cc1	-7	2.1	2	2%	-24
COCCSc1ccccc1C(=O)NCc1ccc2c(c1)OCO2	-5	1.5	5	4%	-20
O=C(CC1C(=O)NCCN1C(=O)Nc1ccccc1)Nc1cc(Cl)cc(Cl)c1 (centres undefined)	/	4.1	18	/	/
COc1ccc(N(CC(=O)NC2CCCC2)S(=O)(=O)c2c(C)[nH]c(=O)[nH]c2=O)cc1	0	-0.6	-5	-6%	-45
CCN(CC)C(=O)Cn1nnc(-c2ccc(S(C)(=O)=O)cc2)n1	5	/	0	1%	/
COc1cccc(N=NC2C(=O)N(C(N)=S)N=C2C)c1 (centres undefined)	/	4.4	96	/	/
CCOc1cc(NC(=S)NCC(C)C)c(OCC)cc1NC(=O)c1ccco1	-11	-1.4	2	7%	-53
Cc1ccccc1-c1nc(CS(=O)CC(=O)NC2CCCC2)c(C)o1 (centres undefined)	/	-0.7	0	/	/
Nc1c(CO)nnn1-c1ccccc1	-2	-2.8	-6	-5%	-16
Cc1ccc(NC(=O)CN(C)C(=O)c2ccc(C(F)(F)F)cc2)cc1	5	2.7	-4	0%	-13
Oc1ccc(Br)cc1CN1CCCCCCC1	5	0.5	-5	-3%	-46
O=Cc1cccn1Cc1ccc(Cl)cc1Cl	-8	2.0	13	4%	-6
CCCCOC(=O)c1ccc(NC(=O)c2cc(Cl)ccc2OC)cc1	7	1.1	90	0%	-31
O=C1CCC(C(=O)OCc2nnc(-c3ccccc3)o2)=NN1	/	1.0	-2	/	/
CC(=O)c1ccc(N2CCN(S(=O)(=O)c3ccc(-c4cc(C)no4)s3)CC2)cc1	/	-3.7	0	/	/
N#C/C(=C\c1c[nH]c2ccc(Br)cc12)c1ccccn1	/	1.8	7	/	/
CN(C)/C=C/C(=O)c1ccccc1	/	-0.2	-2	-1%	/
Cc1ccc2cc(C#N)c(NCCCNC(=O)C3CCCO3)nc2c1 (centres undefined)	-6	/	2	-3%	-5
COc1ccc(S(=O)(=O)N2CCCN(S(=O)(=O)c3ccc(OC)c(C)c3)CC2)cc1C	-6	5.8	2	9%	7
Cc1nnc(NC(=O)CSc2ccc(-c3ccccn3)nn2)s1	-31	-1.5	2	-8%	/
Cc1ccc(S(=O)(=O)CC(=O)NCc2ccccc2)cc1	/	3.6	0	/	/
O=C(Cc1ccc(Cl)cc1Cl)Nc1ccc(OC(F)F)c(Cl)c1	22	1.2	/	20%	-38
CCN(CC)S(=O)(=O)c1ccc(OCC(=O)NC2CCS(=O)(=O)C2)c([N+](=O)[O-])c1 (centres undefined)	2	-1.1	-4	-8%	/
CC1=CCC2C(=O)N(c3ccc(OC(=O)c4ccco4)cc3)C(=O)C2C1 (centres undefined)	2	15	-6	4%	/
COc1ccc(-c2c(C#N)c(N)nc3c2CCc2ccccc2-3)cc1OC	-16	5.4	51	5%	-19
CS(=O)(=O)Nc1ccc(-c2nnc3n2CCCCC3)cc1	/	-3.8	7	/	/
O=C(O)CNC(=O)CCn1nnc2ccccc2c1=O	/	0.4	-15	-8%	/
CCCc1noc2c1/C(=N\O)CC(c1ccccc1)C2 (centres undefined)	-6	0.2	-1	-2%	-20
COc1ccc(C(=O)NC(=S)NNC(=O)CCc2ccccc2)cc1	-32	34*	87	53%	-5
OC(c1ccc(Cl)cc1)c1nnc(-c2ccccc2)o1 (centres undefined)	12	/	-1	7%	-31
O=C(NCc1ccncc1)Nc1cc(Cl)ccc1Cl	-6	0.3	-10	1%	/
CCc1nnc(NS(=O)(=O)c2ccc(NC(=S)NC(=O)/C=C/c3cccs3)cc2)s1	1	14	/	3%	/
C=CCNCCCCOc1cccc(Br)c1	-20	1.8	8	6%	/
Cc1[nH]cnc1C(=O)N/N=C/c1ccc([N+](=O)[O-])s1	/	-3.0	97	/	/
NC(=S)NNc1c(F)c(F)c(F)c(F)c1F	4	0.4	4	5%	/
O=C1CN(C(=S)NC(=O)c2ccccc2[N+](=O)[O-])CCN1	/	-1.2	-5	/	/
CCOC(=O)C1(Cc2cccc(OC)c2)CCN(Cc2cccc(OCC)c2O)CC1	29	3.2	-2	3%	/
COc1cc(NC(=O)C2CCCN(S(=O)(=O)c3cccc4nsnc34)C2)cc(OC)c1 (centres undefined)	-10	2.7	-8	/	-30
O=C1OCC(c2ccc(Cl)s2)=C1c1ccccc1[N+](=O)[O-]	/	2.2	6	/	/
COc1ccc(C(=O)Nc2ccc(F)cc2F)cc1	-7	-7.5	1	9%	-35
O=C(COc1ccc(Cl)cc1Cl)NNC(=S)Nc1ccc(F)cc1	11	3.0	2	11%	-11
COc1ccc(C(NC(C)=O)c2cc(Cl)c3cccnc3c2O)cc1OC (centres undefined)	-22	-1.6	3	-7%	/
Cc1cccc(C(=O)NNC(=O)C2CCN(C(=O)OC(C)(C)C)CC2)c1	/	-3.3	-7	/	/
COc1ccc(-c2cc(C(=O)Nc3ccccc3)on2)cc1	5	-0.2	6	5%	/
Cc1cc(-c2ccc(C)c(S(=O)(=O)NCCCN3CCN(c4ccccc4F)CC3)c2)on1	/	6.9	67	/	/
COc1ccc(C)cc1NC(=O)C(OC(=O)CNC(=O)c1ccc(Oc2ccccc2)cc1)c1ccccc1 (centres undefined)	-10	-1.1	-3	6%	-20
CCCC(C)C(=O)Nc1nnc(C)s1 (centres undefined)	-1	1.4	?	-8%	-47
CCCCC(=O)N(CCOC)c1nnc(-c2ccc(OC)cc2)s1	-13	2.1	23	99%	-22
O=C(Nc1ccccc1C(=O)NCc1ccccc1)c1ccccc1	3	2.7	?	-4%	-40
CCN(CC)CCNC(=O)C1CCN(S(=O)(=O)N2CCCCC2)CC1	-11	0.0	9	-12%	-18
COc1ccc(-c2csc(NCc3ccco3)n2)cc1	-2	4.6	41	9%	-15
CCOC(=O)c1sc(NC(=O)CC(C)c2ccccc2)nc1C (centres undefined)	/	1.2	49	/	/
O=c1c(/C=N/N2CCOCC2)c(O)n(-c2ccccc2)c(=S)n1-c1ccccc1	-14	-2.6	3	-12%	-13
CC(=O)Nc1ccc(NC(=O)CCOc2cc(C)ccc2C)cc1	/	0.0	12	/	/
Cc1c(S(=O)(=O)NC(C)c2ccccc2)c(=O)n(C)c(=O)n1C (centres undefined)	/	-2.6	-2	/	/
COCCOC(=O)C1=C(C)NC(C)=C(C(=O)OCCOC)C1/C=C/c1ccccc1OC	/	-23	-4	0%	/
Cc1ccc(NC(=O)CNCc2cccs2)cc1Br	/	1.0	91	/	/

Other records.
SMILES	Arbovirus inh	RecA intein inh	Mtb bLac sens	Mtb H37Rv	YopH inh	others
O=C(NCc1cccnc1)Nc1ccc(Br)cc1Cl	/	1.2	-5	/	/
COc1cccc(CNC(=O)CN2c3cccc4cccc(c34)S2(=O)=O)c1	/	5.5	2	/	/
Cc1cccc(-c2noc(-c3ccc(Cl)cc3[N+](=O)[O-])n2)c1	-1	1.2	-8	10%	-22
CC(NC(=O)Nc1ccc(Cl)cc1)c1ccc2c(c1)OCO2 (centres undefined)	/	5.6	-2	/	/
CCCCCN(C(=O)NC(=O)Nc1nncs1)S(C)(=O)=O	-2	1.5	9	-7%	-32
CC(=O)c1sc(NC(=O)CCS(=O)(=O)c2ccc(Cl)cc2)nc1C	/	-1.3	62	/	/
CCN(CC)CCNC(=O)c1ccc2c(=O)n(C3CCCC3)c(=S)[nH]c2c1	0	2.3	-37	-10%	-14
ClCc1ncc(-c2ccc(Cl)cc2)o1	1	/	74	6%	/
Cc1[nH]c2ccccc2c1CCO	5	-5.0	-1	-3%	-16
CCCOc1nc(N)c(C#N)c(-c2ccccc2F)c1C#N	16	0.0	/	8%	-44
CCCCn1c(N)c(N(CC(C)C)C(=O)CC2OC(=O)c3ccccc32)c(=O)[nH]c1=O (centres undefined)	/	-0.1	-5	/	/
O=C(NCc1ccc(F)cc1)c1cccc2c1C(=O)N(Cc1cccnc1)C2	-9	0.2	4	1%	/
Cc1c(NC(=S)N/N=C/C=C/c2ccc([N+](=O)[O-])cc2)c(=O)n(-c2ccccc2)n1C	1	3.7	4	10%	-1
CCN(CC)CCCNC(=O)c1cc2c(-c3cccc(OC)c3)nn(C)c2s1	/	3.5	9	/	/
COc1ccc(-c2nnnn2C)cc1S(=O)(=O)NCCc1ccccc1	1	-0.5	-5	-3%	-11	Arbovirus inh repeat=-1
COCCC(=O)N1CCC(Oc2ccc(C(=O)NC3CCCCC3)cc2)CC1	/	-2.3	-2	/	/
CCOc1ccc(NC(=O)N(CCN(C)C)C(C)c2ccncc2)cc1 (centres undefined)	0	-0.6	-5	15%	-19	Arbovirus inh repeat=-3
COc1ccc(S(=O)(=O)Nc2c(C)n(C)n(-c3ccccc3)c2=O)cc1Br	/	4.3	-8	/	/
CC(=O)c1c(C)[nH]c(C(=O)Nc2ccc(Cl)cc2F)c1C	/	-1.9	3	/	/
COc1ccccc1OCCC(=O)OCC(=O)NC(=O)NC(C)(C)C	10	1.6	-14	6%	-4	Arbovirus inh repeat=4

5 entries drawn at random from those above:
SMILES	Arbovirus inh	RecA intein inh	Mtb bLac sens	Mtb H37Rv	YopH inh	others
Cc1ccc(S(=O)(=O)CC(=O)NCc2ccccc2)cc1	/	3.6	0	/	/
COCCC(=O)N1CCC(Oc2ccc(C(=O)NC3CCCCC3)cc2)CC1	/	-2.3	-2	/	/
CCN(CC)CCCNC(=O)c1cc2c(-c3cccc(OC)c3)nn(C)c2s1	/	3.5	9	/	/
N#C/C(=C\c1c[nH]c2ccc(Br)cc12)c1ccccn1	/	1.8	7	/	/
CCCCn1c(N)c(N(CC(C)C)C(=O)CC2OC(=O)c3ccccc32)c(=O)[nH]c1=O (centres undefined)	/	-0.1	-5	/	/

Continuation:
SMILES	Arbovirus inh	RecA intein inh	Mtb bLac sens	Mtb H37Rv	YopH inh	others
CS(=O)(=O)c1ccc2nc(NC(NC(=O)c3ccco3)(C(F)(F)F)C(F)(F)F)sc2c1	5	1.3	-3	/	-1
CCOc1ccc(N(CC(=O)Nc2ccccc2F)S(=O)(=O)c2c(C)[nH]c(=O)[nH]c2=O)cc1	/	2.9	4	/	/
O=C(Nc1cccc(S(=O)(=O)N2CCCCC2)c1)c1ccc2ccccc2n1	-6	-2.8	7	9%	-11
Cc1cc(-c2ccccc2)nc2c(Br)c(=O)[nH]n12	12	1.3	22	0%	/
Fc1cccc(-n2c(-c3cccs3)nc3nc4ccccc4nc32)c1	/	-16	-5	1%	/
CS(=O)(=O)N1CCC(C(=O)N2CCN(c3cccc(Cl)c3)CC2)CC1	4	8.2	1	1%	/
Cc1ccc(S(=O)(=O)NCCc2cccs2)cc1	/	1.7	1	11%	/
Cc1ccccc1-n1c(-c2ccc(Cl)cc2)cnc1SCC(=O)NC1CCS(=O)(=O)C1 (centres undefined)	-17	3.9	63	1%	5
Cc1nc(-c2ccncc2)nc(NCCNc2ccc(C(F)(F)F)cn2)c1Cl	/	0.6	-5	-6%	/
Cc1nnc(NC(=O)CSc2ccc(-c3cccnc3)nn2)s1	15	0.1	-3	-4%	/
Cc1ccc(NC(=O)CCN2CCN(C)CC2)cc1	/	-3.2	-8	/	/
O=C1CCCN1CCCNC(=S)Nc1cccc2ccccc12	2	0.9	1	2%	/
CC(Oc1ccccc1)C(=O)NC1CCCCCCC1 (centres undefined)	/	-2.5	6	/	/
CCCCCc1cc(O)c2c(C)cc(=O)oc2c1	7	0.1	-1	0%	-52
Cc1csc(NC(=O)CSc2nnc(NC(=O)COc3ccccc3)s2)n1	3	2.0	-1	-4%	-2
O=C(N/N=C\c1ccccn1)c1ccccc1O	-4	-3.2	83	26%	/
O=C(NCc1cccnc1)C1CC(=O)N(CCc2ccccc2)C1 (centres undefined)	0	-0.1	2	0%	-27
COc1cccc(NC(=O)CCC2CCN(C(=O)c3scnc3C)CC2)c1	/	1.4	5	/	/
N#CCc1c(C#N)c(N)nc(N2CCN(Cc3ccc4c(c3)OCO4)CC2)c1C#N	-8	-2.2	39	/	-1

A section taken from the entries so far, for reference:
SMILES	Arbovirus inh	RecA intein inh	Mtb bLac sens	Mtb H37Rv	YopH inh	others
O=C(NCc1cccnc1)C1CC(=O)N(CCc2ccccc2)C1 (centres undefined)	0	-0.1	2	0%	-27
COc1cccc(NC(=O)CCC2CCN(C(=O)c3scnc3C)CC2)c1	/	1.4	5	/	/
N#CCc1c(C#N)c(N)nc(N2CCN(Cc3ccc4c(c3)OCO4)CC2)c1C#N	-8	-2.2	39	/	-1
